Assay outcomes: PubChem BioAssay, National Center for Advancing Translational Sciences (NCATS)
miR-21 FLuc = raises the signal of a miR-21 reporter; HeLa miR-21 FLuc reporter, luciferase, 48 h; Potency, µM (series often up to 38.3 µM), for inactives: at the highest dose reporter change, positive = more light; 340,000 tested, under 10 active; AID 2288; active = well fitted rising curve with a large enough effect; inconclusive = small, poorly fitted or top-dose-only effect; inactive = no such curve, though single readings can be large or run the other way;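 also: % of control where 0% means no effect; miR-21 action dims this reporter so a rising signal means less miR-21 action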
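Using DMEM plus 10% FBS, HeLa miR-21-FLuc cells are incubated with test compounds (final up to about 40uM) for 48 hours; firefly luciferase signal is then imaged following reagent-mediated lysis.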
Rango release inh = inhibitors of RanGTP-induced Rango-importin beta complex dissociation | O95149+P62826 | Biochemical FRET Rango-importin beta, RanGTP-induced dissociation | Potency, µM (titrated, usually from 46.1 µM), without a hit: at the highest dose activity change, negative = inhibition | hit rate 0.071% among 340,000; active means falling FRET ratio curve, often poorly fitted, with flat reads before Ran was added; inconclusive means other falling curves, or compound fluorescence or quenching; inactive means flat or rising ratio curve;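 also: potency is read from the fitted curve at half-maximal effect; % of control where 0% means no effect; nearly all actives have a fitted effect of over 45% in size; -100% = wells without RanGTP and RCC1; the record marks most hits as doubtful in a second field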
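Rango FRET biosensor (snurportin-1 IBB flanked by N-terminal EYFP and C-terminal CFP10) at 0.1 uM, with 0.25 uM importin beta in PBS, 1mM DTT, 0.02% Tween-20, 0.1% BSA. 0.6 uM Ran, 2mM GTP and 0.2 uM RCC1 were then added for 45 min at room temperature. Inhibition read as loss of FRET rise.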
GLA inh pH 4.5 = inhibitors of human alpha-galactosidase A at pH 4.5; AID 1467; 230,000 tested, under 10 active; purified enzyme, 4-MU-alpha-Gal fluorescence, pH 4.5; activity change, negative = inhibition, % at 105 µM; inconclusive = small, poorly fitted or top-dose-only inhibition, or a rising curve; inactive = flat fitted curve, though single readings scatter; no compound was filed as active;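 also: 0% = full activity with enzyme and -100% = basal without enzyme; dose as in the result columns while the protocol names 77 µM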
Rango-impB inh = Rango-importin beta binding inhibition; hit rate 0.031% among 340,000; Q14974; Rango CFP/YFP FRET sensor + importin beta, 45 min; AID 540263; Potency, µM (doses to about 92.2 µM), without a hit: top-dose inhibition of complex formation; active = rising FRET ratio curve, often small or poorly fitted; inconclusive = mostly compound fluorescence or quenching in the first reads; inactive = flat curves in all reads;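 also: potency is read from the fitted curve at half-maximal effect; 0% = DMSO wells and 100% = buffer wells lacking importin beta; nearly all actives have a fitted effect of over 15% in size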
Target sequence (Q14974 whole entry, looked up): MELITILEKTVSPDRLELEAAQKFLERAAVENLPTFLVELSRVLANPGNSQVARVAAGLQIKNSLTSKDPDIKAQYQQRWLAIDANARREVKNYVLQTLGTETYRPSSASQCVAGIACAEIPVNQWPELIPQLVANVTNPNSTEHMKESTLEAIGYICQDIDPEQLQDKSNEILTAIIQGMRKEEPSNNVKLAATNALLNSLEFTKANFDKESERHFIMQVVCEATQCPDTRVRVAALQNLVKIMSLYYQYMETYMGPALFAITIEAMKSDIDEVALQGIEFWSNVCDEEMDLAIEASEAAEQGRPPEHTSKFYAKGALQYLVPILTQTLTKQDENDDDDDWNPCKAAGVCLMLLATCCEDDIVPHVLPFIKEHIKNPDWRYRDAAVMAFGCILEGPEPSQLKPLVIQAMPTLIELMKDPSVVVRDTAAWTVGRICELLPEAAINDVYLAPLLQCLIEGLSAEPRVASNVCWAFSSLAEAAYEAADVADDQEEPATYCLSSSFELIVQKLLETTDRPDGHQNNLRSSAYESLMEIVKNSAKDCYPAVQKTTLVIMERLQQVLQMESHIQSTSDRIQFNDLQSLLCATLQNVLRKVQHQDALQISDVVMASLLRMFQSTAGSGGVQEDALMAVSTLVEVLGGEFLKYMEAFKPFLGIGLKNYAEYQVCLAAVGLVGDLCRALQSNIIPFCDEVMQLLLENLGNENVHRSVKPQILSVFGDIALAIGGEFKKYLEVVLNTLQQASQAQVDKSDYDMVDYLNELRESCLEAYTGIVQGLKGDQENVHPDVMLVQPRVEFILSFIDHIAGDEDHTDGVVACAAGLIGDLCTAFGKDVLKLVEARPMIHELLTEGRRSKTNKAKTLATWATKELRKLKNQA
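FRET biosensor (snurportin 1 IBB flanked by EYFP and cerulean), 50 nM, with compound 5 min, then 0.125 microM importin beta in PBS, 1 mM DTT, 0.02% Tween-20, 0.1% BSA. CFP/YFP ratio read after 45 min at room temperature; pre-read flags interference.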
* hit, by the source's call; ? = inconclusive; . = no result given.

SMILES	miR-21 FLuc	Rango release inh	GLA inh pH 4.5	Rango-impB inh
O=C(Cn1cnc2ccccc21)OCC(=O)N1CCc2ccccc2C1	-2%	12%	2	0.5%
Cc1cnc(NC(=O)CSc2nc3ccccc3s2)s1	0%	-1%	1	-3.6%
CCN(CC)CCCNC(=O)C1CCC(CNS(=O)(=O)c2ccc(Cl)cc2)CC1 (stereo unspecified)	-1%	2%	.	1.6%
CN(C)CCCNC(=O)c1ccc(CN(c2ccccc2)S(C)(=O)=O)cc1	-3%	-15%	0	?
COc1cccc(NC(=O)CN(C)C(=O)c2ccccc2CCc2ccccc2)c1	13%	1%	.	1.5%
CN(C)CCOc1nc(-c2ccccc2)nc2c1oc1ccccc12	-2%	3%	-3	1.2%
O=C1CCC(=O)N1c1ccc(CSc2nc3ccccc3[nH]2)cc1	-29%	31%	0	3.2%
COc1cc(/C=C2/SC(=O)N(CC(=O)N3CCCC3)C2=O)ccc1Oc1ccc([N+](=O)[O-])cn1	-5%	8%	.	6.1%
Cc1ccc(S(=O)(=O)N2CCCCC2)cc1C(=O)N(C)CC(=O)Nc1cccc(F)c1	.	-2%	.	-1.8%
FC(F)C(F)(F)C1=CC(c2cccs2)=NCCN1	-5%	-20%	-11	0.3%
CC(=O)N1CCc2cc(S(=O)(=O)NC(C(=O)NC3CCCc4ccccc43)C(C)C)ccc21 (stereo unspecified)	-6%	5%	0	0.4%
Cc1cccc(C)c1OCCNC(=O)CCC(=O)c1ccccc1	1%	-13%	-9	-0.9%
CCOC(=O)C1=CN(Cc2ccco2)S(=O)(=O)N(C)C1c1cccc(OC)c1 (stereo unspecified)	.	4%	.	0.6%
Cc1ccccc1NC(=S)NC1CC2CCC(C1)N2Cc1ccco1 (stereo unspecified)	-5%	14%	4	-3.5%
CCCC(=O)CN1C(=O)C2(OCCO2)c2ccccc21	-1%	17%	-12	-0.1%
CC(C)(C)c1ccc(S(=O)(=O)N2CCCC2C(=O)NC2=NCCS2)cc1 (stereo unspecified)	3%	1%	7	2.4%
CCOC(=O)/C(=C\c1ccccc1)C(=O)c1cc(C(C)=O)c(Nc2ccccc2)s1	-4%	-2%	-1	?
CCO[C@@H]1OC(C(N)=O)=C[C@H](c2ccccc2)[C@H]1CCCO	0%	-5%	3	0.2%
Cn1nc(C(=O)NC(C)(C)C)c2ccccc21	-12%	-1%	-6	-0.4%
COc1cccc(C2Nc3ccccc3C(=O)N2Cc2ccccc2)c1 (stereo unspecified)	.	18%	.	4.4%
COc1ccc(CNc2ccccn2)c(O)c1	2%	4%	.	-4.6%
COc1ccccc1C(=O)NCCC(=O)N1CC(=O)Nc2ccccc21	-11%	0%	2	2.8%
Cc1nn(-c2ccccc2)c2nc(Cl)c(C(=O)O)cc12	-9%	-2%	-16	0.2%
CC(C)CCNC(=S)Nc1ccccc1F	-13%	-5%	8	-0.1%
O=C(CSc1nnc(C2CC2)n1Cc1ccccc1)c1cc2ccccc2o1	-15%	-1%	-9	-0.8%
O=C(COc1c(F)c(F)c(C(F)(F)F)c(F)c1F)Nc1ccc(N2CCOCC2)c(Cl)c1	11%	0%	-14	-0.2%
COc1ccc(OC)c(NC(=O)CCC(=O)Oc2ccc(C)cc2)c1	-3%	-8%	.	-2.3%
O=C(NCC(c1ccco1)N1CCOCC1)C1CCCCC1 (stereo unspecified)	.	6%	.	-4.4%
O=C(Nc1ccc(Br)c2cccnc12)c1ccc(Cn2cc(Cl)cn2)o1	0%	-13%	-12	-0.9%
N#CCCN(C(=S)NC(=O)c1cccs1)c1ccccc1F	.	18%	.	0.5%
CC(C)c1ccccc1OCCCCN1CCCCC1	.	1%	.	-2.2%
O=C(Nc1cccc(NC(=O)c2cccs2)c1)c1ccc(Br)cc1	6%	2%	.	0.5%
COc1ccccc1NC(=O)CSc1n[nH]c(-c2ccccn2)n1	23%	-2%	.	5.0%
CC(=O)C1CCC2C3CC(O)C4=CC(=O)CCC4(C)C3C(=O)CC12C (stereo unspecified)	.	15%	.	-0.8%
Cc1cccc(NC(=O)CSCC(=O)N(C)CCOc2ccc(Cl)cc2)c1	.	-22%	.	4.5%
CC(=O)c1ccc(NC(=O)CSc2nnc(C3CC3)n2C)cc1	-2%	5%	.	3.5%
CC(C)(C)n1nc(-c2ccc(F)cc2)c2c(N)ncnc21	-21%	42%	-3	3.7%
COc1ccc2oc(-c3ccccc3[N+](=O)[O-])cc(=O)c2c1	-26%	7%	7	-2.4%
CC(NC(=O)CSC(=S)N1CCCC1)c1ccc(S(N)(=O)=O)cc1 (stereo unspecified)	.	-3%	.	-1.0%
COc1cccc(NC(=O)CN2C(=O)NC3(CCCCCC3)C2=O)c1	.	1%	.	2.9%
Nc1nc2ccccc2n1/N=C/c1ccc([N+](=O)[O-])s1	20%	-1%	-2	-5.2%
O=C(O)c1ccc(N2N=C(c3ccccc3)CC2c2ccccc2)cc1 (stereo unspecified)	-9%	?	.	?
CCOC(=O)CSc1nnc(-c2ccccc2NC(=O)c2ccccc2)o1	0%	-3%	-2	-0.9%
O=C(CSc1ccc(-c2cccs2)nn1)c1cccs1	-59%	-1%	-6	-0.9%
COC(=O)C1CCN(C(=O)Cc2ccc(C)cc2)CC1	-11%	6%	5	-2.8%
CC(C)N1CCc2c(sc(NC(=O)c3ccc(S(=O)(=O)N4CCc5ccccc54)cc3)c2C(N)=O)C1	10%	?	-20	?
CC(c1ccco1)N(C(=O)c1ccc(C#N)cc1)c1ccccn1 (stereo unspecified)	0%	-9%	-1	-0.3%
Cn1nnc(NC(=O)c2ccccc2F)n1	-3%	-3%	5	2.8%
C/C(=N\NC(=O)c1cc(-c2ccc(Br)s2)[nH]n1)c1ccncc1	-11%	1%	.	1.0%
Cc1cc2cc(NC(=O)c3ccco3)ccc2[nH]1	-47%	26%	-3	0.3%
COc1ccc(C(CNC(=O)Cn2[nH]c(=O)c3ccccc3c2=O)N2CCCC2)cc1 (stereo unspecified)	3%	-12%	-8	-3.7%
O=C(c1ccco1)N1CCN(c2ncnc3c2[nH]c2ccc(Br)cc23)CC1	11%	5%	-7	-1.9%
Cc1ccc(C(C)C)c(OCc2ccc(C(=O)N/N=C/c3ccc(O)c(O)c3)cc2)c1	?	5%	3	-4.1%
Cc1cc(C(=O)OCC(=O)NCc2ccc3c(c2)OCO3)c2ccccc2n1	2%	-1%	3	-2.1%
CC[C@]12c3[nH]c4ccccc4c3CCN1C(=O)C(CC(=O)NC(C)(C)C)C[C@@H]2C(=O)N1CCN(C(=O)C2CC2)CC1 (stereo partly specified)	.	-3%	.	0.8%
CCN(CC)C(=O)Cn1cc(SCC(=O)NC2CCCC2)c2ccccc21	2%	2%	3	-0.7%
COc1cc(C(=O)NNC(=O)c2cccc(Cl)c2)ccc1OCC(=O)N1CCOCC1	.	-4%	.	-3.4%
CC1(C)Cc2c(sc3nn[nH]c(=O)c23)CO1	-13%	-10%	8	3.4%
CC(C)n1c(N2CCN(C(=O)Nc3ccc(Cl)cc3)CC2)nc2ccccc21	4%	?	1	-5.9%
CCS(=O)(=O)n1nc(-c2ccccc2)nc1SCc1ccccc1	-53%	3%	-8	0.3%

Additional compounds:
SMILES	miR-21 FLuc	Rango release inh	GLA inh pH 4.5	Rango-impB inh
CCOc1cc2[nH]c(=S)n(Cc3ccc(C(=O)NCCCN4CCOCC4)cc3)c(=O)c2cc1OCC	-2%	2%	.	-1.8%
Cc1ccc(Cn2nnc3c(=O)[nH]c(C4CCN(S(=O)(=O)Cc5ccccc5)CC4)nc32)cc1	0%	-2%	.	0.1%
Cc1ccc(CNC(=O)C2CCC(=O)N2Cc2ccc(C)cc2)cc1 (stereo unspecified)	-2%	1%	.	-2.0%
COc1ccc(NC2=Nc3cccc4cccc2c34)cc1OC	-9%	-11%	2	-1.3%
CC(C)Oc1ccc(CNC(=O)C2CCN(C(=O)N3CCOc4ccccc43)CC2)cc1	16%	9%	.	0.2%
COc1ccc(N(C(=O)c2cnsn2)C(C(=O)NC2CCCCC2)c2ccncc2)cc1 (stereo unspecified)	-11%	0%	-5	-0.4%
COc1ccc(/C=N/NC(=O)CCn2cnc3ccccc32)cc1	-13%	1%	4	-0.9%
Cc1cccc(N2C(=O)CC(Sc3nc(-c4ccccc4)c4cc(Cl)ccc4n3)C2=O)c1 (stereo unspecified)	-5%	12%	0	1.2%
CC1CCC(NC(=O)c2cc(S(=O)(=O)N(C)C)ccc2N2CCCC2)CC1 (stereo unspecified)	.	-6%	.	-0.2%
c1ccc(CNc2cnccn2)cc1	0%	-4%	-5	3.1%
COc1cc(Cl)c(CNC[C@H]2O[C@@H](n3cnc(C(N)=O)n3)[C@H](O)[C@@H]2O)c(Cl)c1O	.	-6%	.	1.1%
Cc1cccc(CCN(Cc2cc3cccc(C)c3[nH]c2=O)C(=O)N2CCOCC2)c1	-3%	-9%	-7	-1.4%
COc1ccc([N+](=O)[O-])cc1NC(=O)c1cncc(Br)c1	-1%	-3%	-20	-1.2%
Cc1ccccc1CN(C)C1CCN(C)CC1	2%	-6%	.	1.6%
Cn1c(=O)c2c(ncn2CC(N)=O)n(C)c1=O	0%	-28%	4	-1.7%
COc1cccc(C2C3=C(CCCC3=O)Nc3[nH]n(-c4ccccc4)c(=O)c32)c1 (stereo unspecified)	3%	1%	-10	-2.8%
COc1ccc(NC(=O)COC(=O)CC2CC3CCC2C3)c([N+](=O)[O-])c1 (stereo unspecified)	-2%	-4%	-9	?
CC(=O)Nc1cc(C)nn1-c1nc2ccccc2s1	-21%	-10%	5	-1.3%
CC(=O)Nc1ccc(S(=O)(=O)NCCC(=O)NCCOc2ccccc2)cc1	.	5%	.	0.9%
Cc1ccc(NC(=S)NNC(=O)CSc2nnc(-c3ccc(Cl)cc3)n2C2CCCCC2)cc1	-20%	-1%	2	-2.5%
COc1cc2c(C#Cc3cccnc3)c(-c3ccsc3)oc(=O)c2cc1OC	.	-5%	.	-3.3%
COC(=O)C1(C(F)(F)F)N=C(C(F)(F)F)Nc2ccc(Cl)cc21 (stereo unspecified)	-5%	-17%	1	6.3%
COc1ccc(C(=O)Nc2ccc(CN3CCS(=O)(=O)CC3)cc2)cc1	-11%	4%	-28	-1.0%
COc1ccc(C(CC(=O)NC(C)c2ccc(-c3ccccc3)cc2)NC(C)=O)cc1 (stereo unspecified)	-4%	-11%	.	-0.4%
NC(=S)N=Nc1c(O)[nH]c2cc(F)c(F)cc12	-14%	2%	3	4.1%
COc1ccc(S(=O)(=O)n2nc(OC(=O)c3cccs3)cc2N)cc1	1%	4%	5	-0.2%
O=C(NCc1cccnc1)c1ccc(Cl)c(S(=O)(=O)N2CCCCCC2)c1	5%	8%	-4	?
CCCOc1ccc(C(=O)Nc2ccc3c(c2)OCO3)cc1	-30%	-9%	.	-2.8%
Cc1cccc2c1NC(=O)C21OCC(CO)([N+](=O)[O-])CO1 (stereo unspecified)	-7%	-7%	.	0.0%

These rows are one share of the data, so the mix of outcomes need not match the whole.
